Sa growth 42C: S. aureus growth inhibition. actives 0.53% (n = 170,000). S. aureus RN4220 growth, OD600, 20 h, 42 °C; active compounds read low. AID 720641. relative growth, % (no concentration beside the values);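 active = growth at 42 °C up to 50% and 20 or more points under that at 30 °C, or under 10% at both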;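 also: 300 nL library stock went into each well; scaled to the means of positive and negative controls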
GIV Gai3 FP: GIV-Galpha-i interaction inhibition; P08753; Galpha-i3/FITC-GIV peptide fluorescence polarization, 90 min; active compounds read low; scaled: aluminum fluoride 0%, vehicle 100%; percent of control (FP), % (no concentration beside the values); actives 0.42% (n = 210,000); AID 1224905;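 active = replicate mean at 85% of control or lower, very high polarization wells dropped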;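 also: wells of about 15 µL received 100 nL stock; the first replicate is given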
Target sequence (P08753 whole entry, looked up): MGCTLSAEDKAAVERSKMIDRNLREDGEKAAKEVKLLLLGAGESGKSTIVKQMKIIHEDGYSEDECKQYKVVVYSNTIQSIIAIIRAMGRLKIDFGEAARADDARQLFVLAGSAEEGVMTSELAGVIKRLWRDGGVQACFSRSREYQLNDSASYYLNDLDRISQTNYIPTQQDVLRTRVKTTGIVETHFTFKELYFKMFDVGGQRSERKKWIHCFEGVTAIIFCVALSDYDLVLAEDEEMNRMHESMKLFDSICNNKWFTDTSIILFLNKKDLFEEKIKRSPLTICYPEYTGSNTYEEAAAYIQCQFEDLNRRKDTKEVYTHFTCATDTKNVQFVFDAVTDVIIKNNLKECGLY
HCMV NEC inh: inhibitors of HCMV UL50-UL53 nuclear egress complex interaction; actives 0.15% (n = 190,000); HTRF UL50-UL53 interaction, normalized percent inhibition; inhibition, % (concentration not given with the values); AID 1918969;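 active = both replicates at 50% or more, plus weaker picks with an unusually low signal ratio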;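 also: stock transfer was 100 nL into about 20 µL; 0% = negative control wells and 100% = wells with untagged competitor protein; inactives centre near -12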
Sa growth 42C second temp: also measured in Sa growth 42C; calls as there; relative growth, %; measured here: growth at 30 °C;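 optical density after 20 h as mean of two plates; 100% = untreated growth and lower means inhibition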
Starred values were filed as active, the others as inactive; x = not tested or not shown; & = joins results of further samples. Not all compounds are listed; count on the stated rates, not on these rows.

The first 5 records (preview)
No.	molecule	Sa growth 42C	Sa growth 42C second temp
1	CCOC(=O)C1=C(N)OC(C)=C(C(=O)OC(C)C)C12C(=O)Nc1ccccc12 (stereo unspecified)	x	x
2	CC12C/C(=C\c3ccccc3)C(=O)C[C@@H]1CCC1C2CCC2(C)C1CC[C@]2(C)O (stereo partly specified)	102.1	90.3
3	O=C(NCC1CCCO1)c1cc2cccnc2n(Cc2ccc(F)cc2)c1=O (stereo unspecified)	x	x
4	CC12CC[C@@H](O)CC1CCC1C2CCC2(C)C(C(=O)O)CCC12 (stereo partly specified)	90.7	95.0
5	O=C(O)Cn1cc(C=C2C(=O)NC(=O)NC2=O)c2ccccc21	113.4	89.7

No.	GIV Gai3 FP	HCMV NEC inh
1	104.7	-17.9
2	103.9	3.4
3	106.6	-35.3
4	x	-10.7
5	x	-16.4

All compounds of this part, previewed entries included:
No.	molecule	Sa growth 42C	Sa growth 42C second temp
1	CCOC(=O)C1=C(N)OC(C)=C(C(=O)OC(C)C)C12C(=O)Nc1ccccc12 (stereo unspecified)	x	x
2	CC12C/C(=C\c3ccccc3)C(=O)C[C@@H]1CCC1C2CCC2(C)C1CC[C@]2(C)O (stereo partly specified)	102.1	90.3
3	O=C(NCC1CCCO1)c1cc2cccnc2n(Cc2ccc(F)cc2)c1=O (stereo unspecified)	x	x
4	CC12CC[C@@H](O)CC1CCC1C2CCC2(C)C(C(=O)O)CCC12 (stereo partly specified)	90.7	95.0
5	O=C(O)Cn1cc(C=C2C(=O)NC(=O)NC2=O)c2ccccc21	113.4	89.7
6	CC(C(=O)Nc1ccc(F)cc1)N1C(=O)CN=C(c2ccc(F)cc2)c2c1sc1c2CCCC1 (stereo unspecified)	x	x
7	N#CSCC(=O)N1c2ccccc2CCc2ccccc21	12.7	6.5
8	COc1ccc(Cl)cc1NC(=O)c1sc2nc3c(cc2c1N)N1CCC3CC1	101.1	74.4
9	COc1cccc(NC(=O)Cn2cc(C(=O)c3ccccc3)c3ccccc32)c1	88.4	87.4
10	O=C(O)/C=C/c1ccc2c(c1)OCO2	100.3	102.2

No.	GIV Gai3 FP	HCMV NEC inh
1	104.7	-17.9
2	103.9	3.4
3	106.6	-35.3
4	x	-10.7
5	x	-16.4
6	103.4	-17.9
7	98.3	1.2
8	98.6	x
9	104.3	-11.2
10	x	-7.2

(next part)
No.	molecule	Sa growth 42C	Sa growth 42C second temp
11	CCCN1CCC[C@@H](c2cccc(O)c2)C1	x	x
12	Clc1ccc(CC2=NCCN2)cc1	111.7	84.3
13	CCCCn1c(C)c(C(=O)OCC)c2cc(OC(=O)COc3ccccc3C)c3ccccc3c21	x	x
14	Cc1ccc(-c2nc3ccc(C)cn3c2CC(=O)N(C)C)cc1	89.7	79.8
15	CC(=O)N1C(C(=O)O)CSC12CCN(C)CC2 (stereo unspecified)	93.4	88.6
16	CCCN(CCC)C1Cc2cc(OC)c(OC)cc2C1	x	x
17	N#Cc1ccc(CN2CCNCC2)cc1	103.3	89.3
18	COCCCNC1CCC(C)C1 (stereo unspecified)	108.7	82.9
19	CC(C)C1(C)N=C(c2ncccc2C(=O)O)NC1=O (stereo unspecified)	112.7	101.0
20	CCOC(=O)c1ccc(NC(=O)c2cccn(Cc3ccc(C)cc3)c2=O)cc1	141.8	88.2

No.	GIV Gai3 FP	HCMV NEC inh
11	102.7	-35.2
12	103.2	x
13	106.0	-1.9
14	x	-83.7
15	104.6	x
16	99.6	-10.5&6.8
17	x	-26.7
18	103.8	-23.9
19	100.5	-24.2
20	101.6	x

Additional compounds:
No.	molecule	Sa growth 42C	Sa growth 42C second temp
21	CCOC(=O)Cc1ccc(NC(=O)N2Cc3ccccc3-n3cccc3C2c2ccccc2)cc1 (stereo unspecified)	x	x
22	O=c1[nH]c(=S)[nH]c(O)c1C(c1ccc(F)cc1)N1CCCCC1 (stereo unspecified)	80.2	84.1
23	O=C1CN=C(c2ccccc2)c2c(sc3c2CCCC3)N1CCN1CCOCC1	102.2	65.0
24	O=C(Nc1ccc(Br)cc1)C12CCN(CC1)Cc1ccccc12	87.3	86.7
25	Oc1cc2c(cc1O)[C@H]1c3ccccc3CN[C@@H]1CC2	84.0	54.0
26	CCCCn1c(C)c(C(=O)OCC)c2cc(OC(=O)c3cccc([N+](=O)[O-])c3)c3ccccc3c21	x	x
27	O=C(C1c2ccccc2C(=O)N2CCCCC12)N1CCCCCC1 (stereo unspecified)	92.9	88.2
28	C[N+](C)(C)Cc1ccccc1	125.4	89.1
29	COC(=NC1CCCCC1)C(O)c1c[nH]c2ccccc12 (stereo unspecified)	114.6	84.2
30	c1ccc(C(OCCN2CCNCC2)c2ccccc2)cc1	88.9	80.4

No.	GIV Gai3 FP	HCMV NEC inh
21	102.4	-20.8
22	101.8	-27.4
23	106.3	x
24	x	-18.3
25	x	-3.4
26	101.2	7.4
27	98.7	-1.0
28	x	-7.2
29	101.0	x
30	x	-13.7

New compounds follow.
No.	molecule	Sa growth 42C	Sa growth 42C second temp
31	CCOC(=O)C1(c2ccccc2)CCN(Cc2cccc(C(=O)O)c2)CC1	106.4	86.2
32	N#CC(/C=C/c1ccccc1)N1CCOCC1 (stereo unspecified)	x	x
33	Cc1ccc(N=CN(C)C=Nc2ccc(C)cc2C)c(C)c1	101.6	93.0
34	CN(C)Cc1c[nH]c2ccccc12	99.4	86.7
35	CC(C)c1ccc(C(=O)C2CN3CCC2CC3)cc1 (stereo unspecified)	105.6	79.1
36	CC(O)CP(c1ccccc1)c1ccccc1 (stereo unspecified)	67.9	101.2
37	CCC(=O)N1CC(=O)Nc2ccc(F)cc2C1c1ccccc1 (stereo unspecified)	80.5	90.2
38	COc1ccc(OC)c(C(c2c(O)c3ccccc3oc2=O)c2c(C)n(C)n(-c3ccccc3)c2=O)c1 (stereo unspecified)	102.5	93.6
39	CCOC(=O)C1=C(N)Oc2c(c(=O)oc3ccccc23)C1c1ccccc1 (stereo unspecified)	100.7	84.5
40	CNC(C)[C@@H](O)c1ccc(O)cc1 (stereo partly specified)	95.1	87.0

No.	GIV Gai3 FP	HCMV NEC inh
31	x	1.2
32	96.6	20.8
33	x	-9.5
34	x	-22.2&-14.0&-15.0
35	98.3	-5.5
36	105.2	-11.7
37	106.2	x
38	103.0	-6.3
39	99.9	-32.6
40	x	-12.9

(continued)
No.	molecule	Sa growth 42C	Sa growth 42C second temp
41	C1CCN(CC2COC3(CCCCC3)O2)CC1 (stereo unspecified)	110.6	88.2
42	CC1=C(C#N)C(c2cnc[nH]2)C2=C(CCCC2=O)N1 (stereo unspecified)	98.1	94.6
43	c1cncc(CNCCc2c[nH]c3ccccc23)c1	102.2	77.3
44	Cc1cc(N2CC3CC(C2)c2cccc(=O)n2C3)n2ncnc2n1 (stereo unspecified)	105.4	92.5
45	CC(C)CC12CN3CCN(CC(C3)/C1=N/O)C2	108.1	80.2
46	FCCOc1ccc(OCCF)cc1	117.6	106.9
47	c1ccc2sc(C3(N4CCCCC4)CCCCC3)cc2c1	x	x
48	O=C1CC(=O)N(C2CCCCC2)C(=O)N1	90.0	84.7
49	c1ccc2[nH]c(C3CCNCC3)nc2c1	102.2	86.7
50	CC1CN=C(Nc2ccc(F)cc2)S1 (stereo unspecified)	97.2	95.0

No.	GIV Gai3 FP	HCMV NEC inh
41	x	-21.9
42	97.7	-11.3
43	103.2	x
44	103.5	-14.6
45	101.4	0.0
46	103.3	2.6
47	102.5	2.3&-20.8
48	104.3	-4.3
49	101.8	1.0&-17.1
50	x	-2.3

Other records.
No.	molecule	Sa growth 42C	Sa growth 42C second temp
51	CC(c1ccccc1F)n1cc(C(=O)Nc2ccc3nc[nH]c3c2)nn1 (stereo unspecified)	94.4	67.2
52	O=C1NC(=O)C(=Cc2cn(CCOc3ccc4c(c3)OCO4)c3ccccc23)C(=O)N1	142.6	80.0
53	CNC(=O)Oc1c(Cl)cc(Cl)cc1Cl	92.3	32.0
54	CC1(C)CN=C(NCc2cccnc2)S1	78.2	89.3
55	Cc1cccc(C)c1NC(=O)CN1CCCC1=O	x	x
56	O=C1NC(=O)N(c2ccc3c(c2)OCO3)C(=O)/C1=C/c1ccsc1	95.7	75.8
57	Cc1ccc(Cn2cccc(C(=O)Nc3nnc(C)s3)c2=O)cc1	132.4	85.1
58	COC[C@H]1OC(=O)c2coc3c2[C@@]1(C)C1=C(C3=O)C2CCC(=O)[C@@]2(C)C[C@H]1OC(C)=O (stereo partly specified)	x	x
59	Cn1cc(/C=C/c2nc3ccccc3c(=O)n2-c2ccccc2)c2ccccc21	96.5	84.7
60	COc1ccc(-n2c(/C=C\c3ccccc3F)nc3ccccc3c2=O)cc1OC	118.4	86.8

No.	GIV Gai3 FP	HCMV NEC inh
51	99.5	-2.5
52	89.0	x
53	108.1	10.2
54	101.5	x
55	107.3	1.1&-26.7
56	99.7	-10.0
57	103.8&98.6	x
58	101.7	-107.0
59	106.5	-55.9
60	104.0	x

Part of the list above, with each value named.
58) COC[C@H]1OC(=O)c2coc3c2[C@@]1(C)C1=C(C3=O)C2CCC(=O)[C@@]2(C)C[C@H]1OC(C)=O (stereo partly specified)
  Sa growth 42C: x; Sa growth 42C second temp: x; GIV Gai3 FP: 101.7; HCMV NEC inh: -107.0
55) Cc1cccc(C)c1NC(=O)CN1CCCC1=O
  Sa growth 42C: x; Sa growth 42C second temp: x; GIV Gai3 FP: 107.3; HCMV NEC inh: 1.1&-26.7
56) O=C1NC(=O)N(c2ccc3c(c2)OCO3)C(=O)/C1=C/c1ccsc1
  Sa growth 42C: 95.7; Sa growth 42C second temp: 75.8; GIV Gai3 FP: 99.7; HCMV NEC inh: -10.0

Next part
No.	molecule	Sa growth 42C	Sa growth 42C second temp
61	CC[C@@H](C(N)=O)N1CCCC1=O	93.9&96.9	92.1&87.7
62	COc1ccccc1N1C(=O)NC(=O)/C(=C\C=C\c2ccco2)C1=O	107.0	84.7
63	COC(=O)N(c1ccccc1)P1(=S)OCCO1	106.9	92.5
64	C=CCN1C(=O)C2(C(C#N)=C(N)OC(C)=C2C(=O)OC)c2ccccc21 (stereo unspecified)	58.3	26.6
65	Cc1nc(C(F)(F)F)ccc1C(=O)N1CCC2(CC1)OCCO2	84.1	84.6
66	O=C(COc1ccc(Cl)cc1)OCc1csc2c1C1CCN2CC1	104.0	75.8
67	CC1=CC(=C2C(=O)NC(=O)NC2=O)C=C(C(F)(F)F)N1C(C)C	79.0	102.0
68	COc1ccc(CN2CCN(C)CC2)cc1Br	108.3	112.6
69	c1ccc(CC2CCCCN2)cc1 (stereo unspecified)	99.8	97.4
70	COc1ccc(C2SCC(=O)Nc3c2c(-c2ccccc2)nn3-c2ccccc2)cc1 (stereo unspecified)	x	x

No.	GIV Gai3 FP	HCMV NEC inh
61	98.5&97.6	-42.0&-23.7
62	104.2	x
63	106.6	12.8
64	101.8	-23.3
65	99.3	-15.5
66	105.1	-15.7
67	101.8	-22.4
68	98.9	-2.8
69	104.9	-18.7
70	97.2	-9.5

Continued.
No.	molecule	Sa growth 42C	Sa growth 42C second temp
71	CC(=O)N1c2nonc2N(C(C)=O)c2nonc21	99.8	90.0
72	O=C(Cn1cc(/C=C2/C(=O)NC(=O)N(Cc3ccco3)C2=O)c2ccccc21)NCC1CCCO1 (stereo unspecified)	98.4	86.3
73	c1cncc(CNC2CC2)c1	91.1	94.6
74	Cc1cc(OCC(=O)C(C)(C)C)c2c3c(c(=O)oc2c1)CCCC3	106.5	100.2
75	Fc1ccc(F)c(C2NCCc3[nH]cnc32)c1 (stereo unspecified)	x	x
76	Cc1oc2cc(OC(=O)N(C)C)ccc2c(=O)c1-c1nc2ccccc2s1	107.6	90.3
77	O=C1NC(=O)C(CCc2ccccn2)(CCc2ccccn2)C(=O)N1	103.5	88.2
78	Cn1cc(Cl)c(C=C(C#N)C#N)n1	91.6	72.0
79	O=C(CCN1C(=O)c2cccc([N+](=O)[O-])c2C1=O)Nc1ccc(Cl)cc1C(=O)c1ccccc1	x	x
80	CCOC(=O)c1ccc(NC(=O)CSc2nc3c(cc2C#N)N2CCC3CC2)cc1	112.6	91.4

No.	GIV Gai3 FP	HCMV NEC inh
71	103.1	-12.7
72	x	-3.7
73	98.9	-2.9
74	104.4	-15.9
75	101.7	-9.9
76	104.1	0.7
77	x	-8.6
78	104.4	17.0
79	103.1	-52.1
80	103.2	-33.1

(more compounds)
No.	molecule	Sa growth 42C	Sa growth 42C second temp
81	CCOC(=O)c1cc2c(cn1)[nH]c1ccccc12	115.2	91.9
82	Cc1cc2oc(=O)c3c(c2c(O)c1CN1CCCCC1)CCCC3	104.3	86.8
83	CCOc1ccccc1Oc1coc2cc(OC(=O)N(C)C)ccc2c1=O	93.5	88.3
84	COc1ccc(C2NCCc3[nH]cnc32)cc1OC (stereo unspecified)	96.9	112.6
85	CN1CCN(Cc2cn3ccccc3n2)CC1	84.5	80.6
86	OC1C2CN3CCN(C2)CC1(c1ccccc1)C3 (stereo unspecified)	93.8	95.5
87	O=C1NC(=S)NC(=O)C1=Cc1ccccc1	94.6	80.3
88	COCC(C)N=C=S (stereo unspecified)	94.5	94.1

No.	GIV Gai3 FP	HCMV NEC inh
81	105.0	-10.9
82	x	-4.5
83	105.3	-24.8
84	100.7&102.3	-1.7&-9.1
85	105.3	15.2
86	x	-1.6
87	91.1	x
88	x	-14.8

Screens: PubChem, ICCB-Longwood Screening Facility, Harvard Medical School
